Screening data (PubChem)
Yeast UUG start: modulators of start codon recognition fidelity in yeast; S. cerevisiae UUG-firefly luciferase reporter, luminescence/redox ratio; activity score, % at 18.7 µM; 350,000 compounds, 0.13% hits; AID 602363;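 active = replicate mean at a twofold rise or more, about +100% in these data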;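 note: firefly luciferase made from a UUG start codon reports start codon fidelity; reporter light over untreated wells divided by growth signal over untreated wells; some hits fall short of that in this replicate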
MT1-MMP act inh: MT1-MMP (human) activation inhibition | HT1080 RFP-PRO-GFP cells, GFP/RFP ratio fluorescence, overnight; percent of plate control window, DMSO zero | GFP/RFP ratio change, % at 20 µM | 360,000 compounds, 0.061% hits | P50281 | AID 651647;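 active = GFP/RFP ratio change of at least 30% with cell ATP level not reduced by more than half and red fluorescence within 50% of control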; note: strong numbers were not always called active
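Test system: HT1080 cells expressing an RFP-PRO-GFP fluorescent reporter construct / Compound dosing: single-point 20 µM compound, 1% DMSO / Schedule: cells overnight before dosing, compound overnight, 37 °C, 5% CO2 / Evaluation: GFP/RFP fluorescence ratio / Control set: DMSO and RFP-L50D-GFP cell wells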
PABP FP inh: blocks human PABP binding to poly(A) RNA. P11940. fluorescence polarization. inhibition, % at 35 µM. 290,000 compounds, 1% hits. AID 2014;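 active = 50% or more with normal probe brightness, or confirmed in later tests; inconclusive = above 50% with abnormal brightness, or retests that disagree; inactive = below 50% or failed in later tests; about a fifth of its hits are not listed in these tables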;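 note: calls also rest on retests at 20 µM and on dose response follow-up; controls were probe without protein and protein plus probe with vehicle; some compounds called inactive have numbers as strong as hits; many hits fall short of the cut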
Target sequence (P11940 whole entry, looked up): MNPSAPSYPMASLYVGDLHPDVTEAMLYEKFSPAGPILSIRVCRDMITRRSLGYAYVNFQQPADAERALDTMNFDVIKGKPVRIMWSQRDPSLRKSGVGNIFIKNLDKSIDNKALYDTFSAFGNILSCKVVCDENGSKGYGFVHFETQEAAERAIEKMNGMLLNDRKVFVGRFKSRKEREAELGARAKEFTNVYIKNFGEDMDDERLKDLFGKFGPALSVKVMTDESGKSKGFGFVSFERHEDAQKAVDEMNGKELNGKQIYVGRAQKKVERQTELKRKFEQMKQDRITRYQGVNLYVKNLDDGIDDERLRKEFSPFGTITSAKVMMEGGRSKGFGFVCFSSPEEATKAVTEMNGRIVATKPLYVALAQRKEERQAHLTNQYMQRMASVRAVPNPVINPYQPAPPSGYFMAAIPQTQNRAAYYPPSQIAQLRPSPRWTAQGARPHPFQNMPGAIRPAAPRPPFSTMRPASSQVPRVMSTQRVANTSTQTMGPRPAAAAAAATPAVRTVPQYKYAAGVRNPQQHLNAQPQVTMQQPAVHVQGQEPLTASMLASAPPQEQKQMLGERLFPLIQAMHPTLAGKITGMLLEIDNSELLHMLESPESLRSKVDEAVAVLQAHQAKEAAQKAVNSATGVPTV
Rce1 inhib: yeast Ras-converting enzyme inhibition | calls only | yeast membranes, quenched prenylated peptide cleavage fluorescence | 290,000 compounds, 0.27% hits;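 active = fall in fluorescence gain of 50% or more versus controls, with final raw signal at or below 3038400; inconclusive = same 50% fall but final raw signal above 3038400; inactive = fall in fluorescence gain under 50%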;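 note: plate controls were neutral control wells for no effect and wells lacking membranes for full effect; tested at 10 µM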
Target sequence (Q03530 whole entry, looked up): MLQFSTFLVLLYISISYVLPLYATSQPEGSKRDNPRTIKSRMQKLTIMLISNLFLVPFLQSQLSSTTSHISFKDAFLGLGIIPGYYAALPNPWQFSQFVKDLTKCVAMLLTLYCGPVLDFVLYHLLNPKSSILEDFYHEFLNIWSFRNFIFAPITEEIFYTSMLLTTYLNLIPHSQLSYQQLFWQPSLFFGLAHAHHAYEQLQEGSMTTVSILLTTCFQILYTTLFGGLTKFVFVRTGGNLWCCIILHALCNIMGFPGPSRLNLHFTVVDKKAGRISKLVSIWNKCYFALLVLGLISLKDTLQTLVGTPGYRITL
CSC inhib: blocks cancer stem cells. cancer stem cell-like cells viability, luminescence. inhibition, % at 7.5 µM. 300,000 compounds, 1.1% hits. AID 2717;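 active = mean at 75% or more and at least half the replicates too; inconclusive = mean and replicates disagree; tested in HMLE shEcad cells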;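 note: 0% = median of negative and 100% = median of positive control wells; the first replicate is given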
eIF4H FP inh: inhibitors of RNA binding by human eIF4H; Q15056; eIF4H fluorescence polarization binding assay; inhibition, % at 35 µM; 290,000 compounds, 0.94% hits; AID 2012;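 active = 50% or more with normal probe brightness, or confirmed in later tests; inconclusive = above 50% with abnormal brightness, or retests that disagree; inactive = below 50% or failed in later tests; about a fifth of its hits are not listed in these tables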;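 note: calls also rest on retests at 20 µM and on dose response follow-up; 0% = protein and probe with vehicle and 100% = probe without protein; strong numbers were not always called active; many hits fall short of the cut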
Env fusion inh: blocks HIV Env-driven cell-cell fusion. 360,000 compounds, 1.1% hits. inhibition, % at 12.3 µM. HeLa-JRFL Env/CEM21 cell fusion, luciferase. AID 651610;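 active = mean replicate inhibition score of at least 50 and every replicate individually at or above 50; inconclusive = only one of the two criteria met; inactive = mean below 50 and not all replicates reaching 50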;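 note: 0% = plate neutral controls and 100% = maraviroc near 300 nM; one replicate is shown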
MT1-MMP act inh RFP: recorded beside MT1-MMP act inh, whose call it bears; RFP signal change, %; measured here: RFP expression control read;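 0 = vehicle wells; hits needed this value within 50% of zero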
Numbers without * were called inactive; i = inactive; ? = inconclusive; . = not tested or not shown.

SMILES	Yeast UUG start	MT1-MMP act inh	MT1-MMP act inh RFP	PABP FP inh	Rce1 inhib	CSC inhib	eIF4H FP inh	Env fusion inh
CCOC(=O)c1c(NC(=O)Cn2nnc(-c3ccc(Cl)cc3)n2)sc(C)c1C	-6	-15	-7	-4	i	10	-9	.
O=C(C#Cc1ccccc1)Nc1ccccc1F	-41	6	0	6	i	4	1	-19
CCS(=O)(=O)NCc1ccc2c(c1)cc(C)n2C	25	6	9	-1	i	-9	36	-1
COc1ccc(C2CC(=O)C(C=NCCCO)=C(O)C2)cc1 (configuration not stated)	-11	-13	-3	?	i	-10	?	-49
CCCC(=O)Nc1nnc(S(=O)(=O)N2CCCCCC2)s1	-11	-1	0	1	i	-11	-6	-12
CC(=O)Cn1cnc2c(sc3nc(C)cc(C)c32)c1=O	.	-2	1	-3	i	2	-1	-21
COC(=O)[C@@H](NC(=O)NCc1cccc(OC)c1)C(C)C	7	11	4	-7	i	-6	-13	-55
O=[N+]([O-])c1cccc(/C=N/Nc2ncc(Br)cn2)c1	-13	-4	-7	-4	i	4	0	-42
C=CCNC(=O)/C(C#N)=C/c1ccccc1Cl	.	-2	3	-17	i	-5	10	5
COc1ccc(NS(=O)(=O)c2ccc(-c3coc(C)n3)cc2)cc1	-18	6	-8	-6	i	9	1	2
CNC(=S)N/N=C1\CC(c2ccccc2)Oc2ccccc21 (configuration not stated)	-21	0	-4	0	i	-3	1	-14
Cc1cc2oc(=O)c(CC(=O)NCCCN(C)C)c(C)c2c2occ(C(C)(C)C)c12	.	.	.	3	i	91*	3	.
CN(Cc1ccccc1)C(=O)C(=O)c1c[nH]c2ccccc12	2	-3	-4	.	.	.	.	-14
CN1C(=O)[C@H]2[C@@H](C3CC3)N3C(=O)CN(Cc4ccccc4)C(=O)[C@@]3(C)[C@H]2C1=O	0	0	0	7	i	-26	-7	-5
CCOc1ccccc1NC(=O)CN1CCc2ccccc2C1	-12	3	-3	-4	i	67	1	6
CC(=O)OCCCn1c(C)[n+](C)c2cc(Cl)c(Cl)cc21	.	6	13	49	i	-11	-16	4
O=C(NC(=S)Nc1cc(Cl)ccc1N1CCOCC1)c1ccccc1[N+](=O)[O-]	-27	-3	-5	-6	i	55	-5	i
CC1CCN(S(=O)(=O)c2cn(C)c(=O)n(C)c2=O)CC1	-18	-1	5	-4	i	-10	3	-5
Cn1c(SCC(=O)Nc2ccc3c(c2)OCO3)nnc1-c1cnccn1	3	15	3	2	i	3	-8	.
Cc1cc(C(=O)CN2C(=O)NC(C)(c3ccc(F)c(F)c3)C2=O)c(C)n1C1CC1 (configuration not stated)	16	0	0	.	.	.	.	-10
COc1ccc(C(=O)C2CCN(C(=S)NCCc3ccc(OC)c(OC)c3)CC2)cc1	.	12	-21	3	i	-12	-1	26
CCC(C)OC(=O)C1=C(C)O[C@]23OC(N)=C(C#N)[C@]12C(=O)c1ccccc13 (some centres not stated)	-20	-4	3	-12	i	4	-8	-52
CC(=O)N1CCN(Cc2nc3cc(NS(C)(=O)=O)ccc3n2C)CC1	-8	10	0	-2	i	-14	11	-38
COc1ccc(C(=O)N2CCc3cc(OC)c(OC)cc3C2c2cccc([N+](=O)[O-])c2)cc1OC (configuration not stated)	.	5	6	0	i	4	4	.
CCOC(=O)N1N=C(CC)CC1(O)C(F)(F)F (configuration not stated)	-2	-7	3	0	i	13	3	-80
CCOC(=O)CCNCc1ccc(F)cc1	-21	3	1	8	i	-48	-2	18
CC(NC(=O)c1ccccc1)c1ccc(Br)cc1 (configuration not stated)	.	.	.	11	i	9	-12	26
O=c1cc(-c2ccccc2)[nH]n2cnnc12	-11	0	1	4	i	-11	3	11
COc1ccc(NC(=O)CN2CCN(c3ccc(F)cc3)CC2)cc1Cl	-6	5	2	8	i	-8	-4	.
N=c1oc2ccccc2cc1-c1nc2ccccc2c(=O)[nH]1	-16	-5	5	20	i	8	15	-42

Shown with two lines to a compound: part of the list above
Second line of a record: Yeast UUG start, MT1-MMP act inh, MT1-MMP act inh RFP, PABP FP inh, Rce1 inhib, CSC inhib, eIF4H FP inh, Env fusion inh
> CCC(C)OC(=O)C1=C(C)O[C@]23OC(N)=C(C#N)[C@]12C(=O)c1ccccc13 (some centres not stated)
    -20, -4, 3, -12, i, 4, -8, -52
> CC(=O)N1CCN(Cc2nc3cc(NS(C)(=O)=O)ccc3n2C)CC1
    -8, 10, 0, -2, i, -14, 11, -38
> COc1ccc(C(=O)N2CCc3cc(OC)c(OC)cc3C2c2cccc([N+](=O)[O-])c2)cc1OC (configuration not stated)
    ., 5, 6, 0, i, 4, 4, .
> CCOC(=O)N1N=C(CC)CC1(O)C(F)(F)F (configuration not stated)
    -2, -7, 3, 0, i, 13, 3, -80

Back to the main list, starting 7 compounds before the break.
SMILES	Yeast UUG start	MT1-MMP act inh	MT1-MMP act inh RFP	PABP FP inh	Rce1 inhib	CSC inhib	eIF4H FP inh	Env fusion inh
COc1ccc(C(=O)N2CCc3cc(OC)c(OC)cc3C2c2cccc([N+](=O)[O-])c2)cc1OC (configuration not stated)	.	5	6	0	i	4	4	.
CCOC(=O)N1N=C(CC)CC1(O)C(F)(F)F (configuration not stated)	-2	-7	3	0	i	13	3	-80
CCOC(=O)CCNCc1ccc(F)cc1	-21	3	1	8	i	-48	-2	18
CC(NC(=O)c1ccccc1)c1ccc(Br)cc1 (configuration not stated)	.	.	.	11	i	9	-12	26
O=c1cc(-c2ccccc2)[nH]n2cnnc12	-11	0	1	4	i	-11	3	11
COc1ccc(NC(=O)CN2CCN(c3ccc(F)cc3)CC2)cc1Cl	-6	5	2	8	i	-8	-4	.
N=c1oc2ccccc2cc1-c1nc2ccccc2c(=O)[nH]1	-16	-5	5	20	i	8	15	-42
COc1ccc(NC(=O)C2=CC(c3ccc(C)cc3)=NS(=O)(=O)N2C)cc1OC	4	-5	-17	2	i	1	5	.
C[C@@H]1CN([C@H](C)CO)C(=O)c2c(c3ccccc3n2C)-c2ccccc2CO[C@H]1CN(C)Cc1ccc(C(F)(F)F)cc1	-6	-4	-8	.	.	.	.	?
O=C(CSc1nnc(COc2ccccc2F)n1-c1ccccc1)NCc1ccco1	-9	4	1	3	.	-10	0	.
Cc1ccccc1NC(=S)NCC(c1cccnc1)N1CCOCC1 (configuration not stated)	-24	0	-1	26	i	-11	-2	6
CCOC(=O)CSc1nnc(COc2ccc3ccccc3c2)o1	-6	-2	2	-3	i	-8	1	-3
CC(=O)Nc1ccc(NC(=O)CCCN2C(=O)c3ccccc3C2=O)cc1	-3	-4	-4	6	i	-19	3	5
Cc1cccc(C(C)C)c1NC(=O)COC(=O)COc1ccc2c(C)cc(=O)oc2c1	.	-2	0	-2	i	-8	5	-33
COc1cc(C(=O)Oc2ccccc2/C=N/NC(=O)c2ccc(C)cc2)cc(OC)c1OC	-8	-2	-15	4	i	13	-14	.
CC(=O)c1nnn(-c2cccc([N+](=O)[O-])c2)c1C	-14	1	4	-1	i	0	1	0
COc1ccc(-c2cn3cccc(C)c3n2)cc1F	.	5	3	3	i	-18	-5	-83
CC(=O)OCCc1c2ccccc2c(CCCN(C)C)c2ccccc12	.	-3	0	.	i	-6	.	-52
COc1cc2c3c(c1)/C(=C1/SC(=S)NC1=O)C(=O)N3C(C)(C)C=C2C	-10	-5	-22	1	i	47	-3	-2
CCOC(=O)N1CCN(Cc2nc3cc(NC(=O)CC)ccc3n2CC)CC1	-11	0	0	1	i	-4	-1	-6
CN(C)c1nc(N/N=C/c2ccccc2O)nc(Nc2ccc(F)cc2)n1	.	4	-11	0	i	-1	15	15
O=C(COC(=O)CSc1ccc2ccccc2c1)NCc1ccc2c(c1)OCO2	.	2	6	-2	i	-18	-4	-3
Cc1csc(N(C(=O)c2ccccc2F)c2ccccc2)n1	.	0	-2	-2	i	30	-4	9
O=c1c2c3c(sc2nc2n1CCC2)CCC3	-6	7	11	-3	i	.	6	.
O=S(=O)(Nc1ccccn1)c1ccc(Cl)c2ccccc12	.	-7	-5	-7	i	-12	-7	3
O=C(O)CCCNS(=O)(=O)c1ccccc1	1	1	2	2	i	-9	1	-8
CCOC(=O)C1CCN(c2c(NCCN3CCCCC3C)c(=O)c2=O)CC1 (configuration not stated)	-7	-3	7	-26	i	-2	-7	17
Cc1ccccc1C(=O)O/N=C(\N)c1ccc([N+](=O)[O-])cc1	-14	4	1	2	i	-9	0	-45
CC(C)C(NC(=O)C(NC(=O)C1O[C@@H]2OC(C)(C)O[C@@H]2[C@H]2OC(C)(C)O[C@@H]12)C(C)C)C(=O)O (some centres not stated)	-1	-2	-6	?	i	3	-2	16
COc1ccc(CNC(=O)CN2CCN(c3ccccc3O)CC2)cc1OC	-11	1	0	-1	i	-1	10	-4
Cc1ccccc1CS(=O)(=O)c1snnc1C	.	3	1	-1	i	7	4	6
CSc1nnc(C)c(=O)n1COC(=O)c1ccc(S(=O)(=O)N2CCOCC2)cc1	.	5	6	9	i	4	10	-68
Cc1c(NC(=O)c2nn3c(C(F)(F)F)cc(-c4ccccc4)nc3c2Cl)c(=O)n(-c2ccccc2)n1C	.	2	-2	4	i	0	-7	8
C#CCOCCOCCOCCNc1nc(N2CCN(C(=O)[C@H](CCCN=C(N)N)n3cc(C(N)[C@@H](C)CC)nn3)CC2)nc(N2CCN(C(=O)[C@H](CCC(=O)O)n3cc([C@@H](N)CCCCN)nn3)CC2)n1 (some centres not stated)	31	1	0	.	.	-11	.	-15
CC(=O)Nc1ccc(S(=O)(=O)n2nc(-c3ccc(C)cc3)nc2N)cc1	-22	5	-10	-10	i	-21	11	-51
N#CCNC(=O)C1c2ccccc2Oc2ccccc21	7	2	5	10	i	-16	-8	-2
CCOC(=O)N1CCN(C(=O)C2CCCN(S(=O)(=O)c3ccccc3)C2)CC1 (configuration not stated)	11	1	2	2	i	3	2	16
CC(C)Cc1cc(C(=O)Nc2ccccc2)c2ccccc2n1	-14	-8	-4	5	i	-2	11	40

By substructure: the entries above with a cyano group
SMILES	Yeast UUG start	MT1-MMP act inh	MT1-MMP act inh RFP	PABP FP inh	Rce1 inhib	CSC inhib	eIF4H FP inh	Env fusion inh
C=CCNC(=O)/C(C#N)=C/c1ccccc1Cl	.	-2	3	-17	i	-5	10	5
CCC(C)OC(=O)C1=C(C)O[C@]23OC(N)=C(C#N)[C@]12C(=O)c1ccccc13 (some centres not stated)	-20	-4	3	-12	i	4	-8	-52
N#CCNC(=O)C1c2ccccc2Oc2ccccc21	7	2	5	10	i	-16	-8	-2
